# LANA-nucl inh – inhibitors of KSHV LANA binding to nucleosomes; FITC-LANA1-23 / chicken nucleosome fluorescence polarization; stronger effect = lower value; 51,000 compounds, 0.3% hits; z-score (concentration not given with the values);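 active = both repeat wells score below -2 in polarization z-score versus plate sample wells, excluding overly bright wells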;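 note: 100 nL library stock added to about 30 µL; numbers are from one replicate; some results filed as inactive read as strong as hits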
#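 Assay system: FITC-LANA peptide and chicken nucleosomes; input: 240 nM purified chicken nucleosomes (480 nM peptide binding sites), final; also added: 50 nM FITC-LANA1-23 probe; medium: TEN-BT buffer, pH 7.5; doses: pin-transferred compound, 100 nL; times: 10–45 min, room temperature; technique: fluorescence polarization; replication: duplicates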
# Ab BasE inh – blocks the Acinetobacter baumannii siderophore enzyme BasE. purified BasE, fluorescence polarization binding displacement. inhibition, % (test concentration not listed). 84,000 compounds, 0.1% hits;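 active = both replicates above 25% with normal brightness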;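 note: 0% = negative plate control signal and 100% = positive plate control signal; stock transfer was 100 nL into about 30 µL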
# * hit, by the source's call; · = no result given; & = joins results of further samples.
SMILES,LANA-nucl inh,Ab BasE inh
CCOC(=O)CSC1=C(C#N)C(c2ccc(Cl)cc2)C(C(=O)OC)C(=O)N1 (stereo unspecified),·,3.2
O=C(Cn1nnc(-c2cccs2)n1)N1CCCC1c1ccc2c(c1)OCCCO2 (stereo unspecified),·,2.7
CC(OC(=O)c1ccccc1NCc1ccco1)C(=O)Nc1ccc2c(c1)OCO2 (stereo unspecified),·,6.6
CCc1c(C)nc2n(c1=O)C(CS(=O)(=O)c1ccc3ccccc3c1)CS2 (stereo unspecified),-0.639,2.1
CCC(Oc1ccccc1)C(=O)Nc1nccs1 (stereo unspecified),0.523,-2.3
O=C(N1CC(Oc2ccc(Cl)cc2)C1)N1CC(Oc2ccc(Cl)cc2)C1,·,1.9
CCCC(=O)Nc1cc(=O)n(C)c(=O)n1C,-1.29,1.1
CC(=O)N1CCc2c(C)cc(Cl)cc21,1.39,-0.5
O=C(Nc1ccc(CN2CCS(=O)(=O)CC2)cc1)c1ccco1,·,-1.1
c1coc(CNc2nc(C34CC5CC(CC(C5)C3)C4)cs2)c1,·,2.5
O=C1CCCN1C(=O)CSc1nc(-c2ccccc2)c(-c2ccccc2)o1,·,3.0
O=C(Cc1coc2ccc3ccccc3c12)OCC(=O)c1cc2c3c(c1)CC(=O)N3CCC2,·,0.1
CCCNC(=O)Nc1ccc(S(=O)(=O)Nc2ccc(OCC)cc2)cc1,·,-10.5
CC(=O)N=C(N)/N=c1\nc(C)c2ccc(C)cc2n1C(C)=O,·,2.8
OC(COc1ccc(Br)cc1)Cn1ccnc1 (stereo unspecified),·,0.8
Cc1sc2nc(CSCC(=O)c3cc(C)n(CCC(C)C)c3C)[nH]c(=O)c2c1C,·,-3.7
CCOC(=O)c1cc(C)n(Cc2ccc(OCC)c(OC)c2)c1C,-0.07,0.4
CCOC(=O)c1c(C)nn(-c2ncccc2NC(=S)NCc2ccco2)c1C,-0.328,1.3
CCOc1ccc(C(=O)Nc2ccc(S(=O)(=O)N3CCOCC3)cc2)cc1OCC,0.766,-3.1
CN(C)/C=N/c1sc2c(c1C#N)CCC2,·,-5.2
CCCC1(CCC)NC(=O)N(Cc2cc(=O)oc3c(C)c(C)ccc23)C1=O,·,2.2
Cc1cc(=O)oc2cc(OCC(=O)OCC(=O)c3ccc4c(c3)NC(=O)CO4)ccc12,·,-0.9
CC1(C)Cc2ccccc2C(C)(C(=O)NN)N1 (stereo unspecified),0.442,-0.4
CC(Sc1nncn1C)c1nnc(-c2cccs2)o1 (stereo unspecified),·,-0.8
CCn1c(=O)c2c(nc3n2CCS3)n(C)c1=O,1.5,0.9

# Following part.
SMILES,LANA-nucl inh,Ab BasE inh
CCOC(=O)c1c(-c2ccccc2)oc2ccc(OCC(O)CN3CCOCC3)cc12 (stereo unspecified),·,-2.2
C=CCn1c(NC(=O)CC)c(C(=O)OCC)sc1=S,·,0.0
CC(C)CN1CCOC(CNCc2ccc(-c3nc4ccccc4s3)o2)C1 (stereo unspecified),·,-3.2
CC(=O)Oc1ccc(NNc2ccccc2)cc1,-0.65,·
COc1ccc(-n2cnc(=O)c(C#N)c2SC)cc1,0.419,1.2
COc1cc2c(cc1OC)C(c1c(-c3ccccc3)noc1C)=NCC2,·,-0.2
c1csc(CNC2C3CC4CC(C3)CC2C4)c1 (stereo unspecified),0.26,-3.0
CCN(CC)c1nc2ccccc2c(N)c1-c1ccccc1,·,-7.0
CC1CCCCN1C(=O)CN(c1nccs1)S(=O)(=O)c1ccccc1 (stereo unspecified),·,0.1
O=C(c1ccco1)N(CC1CCCO1)c1nc(-c2ccccc2)cs1 (stereo unspecified),0.036,-1.5
CN(Cc1ccco1)C(=O)c1cc2c(s1)-c1ccc(Cl)cc1S(=O)(=O)C2,0.0605,-0.8
CC(C)CC(=O)NC(=S)Nc1ccc2oc(-c3ccccc3)nc2c1,-0.0075,2.6
O=C1OCc2ccc(NS(=O)(=O)c3ccc(C(F)(F)F)cc3)cc21,·,1.8
CC1=NN(C(C)(C)C#N)C(c2ccccc2)C1 (stereo unspecified),-0.237,-0.2
CC1(C)O[C@H]2O[C@H](C(O)COC(=O)c3ccccc3)[C@H](OC(=O)c3ccccc3)[C@H]2O1 (stereo partly specified),0.406,1.7
COc1cc(NS(=O)(=O)c2ccc(N)cc2)nc(OC)n1,-0.322&-0.574&1.33&0.361,-3.8&2.6
NS(=O)(=O)c1cc(C(=O)O)cc(N2CCCC2)c1Oc1ccccc1,1.38,-4.5
Cc1ccc(SCCNS(C)(=O)=O)cc1,2.27,-3.6
Cc1ncc(CO)c2cc(C(=O)Nc3ccccc3S(N)(=O)=O)c(=O)oc12,0.138,2.8
CCOC(=O)c1nc(N)nc(Nc2ccccc2)n1,0.0475,-0.2
COc1ccccc1CNC1CCCC1,-0.185,0.2
CCOc1ccccc1NC(=O)CCN1C(=O)NC2(CCCC2)C1=O,·,2.0
Cc1ccc(Nc2nc(COC(=O)c3ccc(-n4cnnn4)cc3)cs2)cc1,·,-2.4
Cc1cc(S(=O)(=O)N(C)Cc2ccccc2)ccc1-n1cnnn1,-0.679,1.2
O=C(c1cccc(N2C(=O)C3C4C=CC(C4)C3C2=O)c1)N1CCN(c2ccccc2F)CC1 (stereo unspecified),-0.868,1.8

# Compound profiles (already shown). Order of values: LANA-nucl inh | Ab BasE inh
# CC(C)CC(=O)NC(=S)Nc1ccc2oc(-c3ccccc3)nc2c1 as listed: -0.0075 | 2.6
# Cc1ncc(CO)c2cc(C(=O)Nc3ccccc3S(N)(=O)=O)c(=O)oc12 as listed: 0.138 | 2.8

# Next part.
SMILES,LANA-nucl inh,Ab BasE inh
O=S(=O)(c1ccccc1)c1nc(-c2cccs2)oc1NCc1cccnc1,·,14.6
O[C@@H]1CC2C3C[C@H](O)C4C3CC2C41 (stereo partly specified),-0.772,0.5
CCCCCC1C(O)CCC1CC(=O)OC (stereo unspecified),·,-0.3
COc1ccccc1C(=O)NC1CCN(C)CC1,-0.833,2.4
COC(=O)NCC(c1cccnc1)N1CCN(c2ccccc2)CC1 (stereo unspecified),-0.162,0.1
COc1ccccc1NC(=O)N1CCCN(Cc2ccc(F)cc2)CC1,·,0.6
CC1(C)OC2[C@H](n3cnc4c(N)ncnc43)O[C@H](CO)[C@H]2O1 (stereo partly specified),·,0.9
CCCCC(c1nnnn1C(C)C)N1CCN(c2ccc(F)cc2)CC1 (stereo unspecified),0.163,2.0
Cc1c(C(=O)NCCN2CCOCC2)sc2nc3n(c(=O)c12)CCCC3,0.221,3.8
COC(=O)CNC(c1ccccc1)c1cc(Br)ccc1NC(=O)CN1CCOCC1 (stereo unspecified),·,2.7
c1ccc(CNCCCSc2ncccn2)cc1,0.388,-0.9
Cc1ccc(C(=O)OCC(N)=O)cc1C,·,2.2
CC(C)N(C(=O)N1CCN(c2ccnc3cc(Cl)ccc23)CC1)C(C)C,·,1.6
COC(=O)c1ccc(C(=O)Nc2ccc(C(F)(F)F)cc2)nc1,·,-1.8
CCCCC/C=C\C/C=C\CCCCCCCC(N)=O,-0.209,-0.5
O=C(CSc1ccccc1C(=O)Nc1ccccc1N1CCCC1)NCc1ccco1,·,-0.4
CC(=O)N(CN1C(=O)c2ccccc2C1=O)c1ccccc1,0.524,-0.6
COc1ccc(/C(C)=N/NC(=O)c2ccc(CN3CCOCC3)cc2)cc1,0.034,0.9
COc1cccc(C2=NOC(C(=O)NC(C)C)C2)c1 (stereo unspecified),-1.5,0.4
O=C(O)c1ccccc1NCc1ccc2c(c1)OCO2,1.14,1.7
CN1CCN(NC(=O)CCN2C(=O)/C(=C\c3ccccc3)SC2=S)CC1,·,2.6
CC1CCCN(S(=O)(=O)c2ccc3[nH]c(=O)cc(C(=O)NCCc4ccccc4)c3c2)C1 (stereo unspecified),-0.526,1.8
CC(C)(CNc1ccc(S(=O)(=O)N2CCCC2)cn1)N1CCCCC1,·,0.1
COc1ccc(OC)c(NC(=O)CNC(=O)Cn2cnc3ccccc3c2=O)c1,-0.307,5.8
NC(N)=Nc1nc2cc(Cl)ccc2o1,0.47,-0.4

# (further entries)
SMILES,LANA-nucl inh,Ab BasE inh
S=C(NC1CCCCC1)N(Cc1ccccc1)CC1CC=CCC1 (stereo unspecified),·,2.0
Cc1ccc(C(=O)C(NC(=O)c2ccco2)Nc2ccc(C)c(Cl)c2)cc1 (stereo unspecified),0.272,-1.0
CS(=O)(=O)Nc1cc(-c2nnc(Nc3ccccc3)c3ccccc23)ccc1N1CCOCC1,·,0.1
O=C(CC(C(=O)N1CCc2ccccc21)n1ccnc1)NC1CCCC1 (stereo unspecified),-0.381,1.7
COc1ccc(NC(C)C(=O)N2CCOCC2)c(OC)c1 (stereo unspecified),·,-1.2
O=C(Nc1ccc(N2CCCCC2)cc1)Nc1ccccc1OC(F)(F)F,-0.605,·
CCOC=Nc1c(C(=O)OCC)sc2nc(SC)ncc12,0.325,-0.5
Cc1ccc2nc(-c3ccc(O)cc3O)cn2c1,·,3.4
S=C(NCCN1CCOCC1)Nc1ccccc1,-0.253,0.5
CC(=O)[C@@]1(O)CCC2C3C=C(Cl)C4=CC(=O)[C@@H]5CC5[C@]4(C)C3CC[C@@]21C (stereo partly specified),-0.342,-2.8
COc1cc(C(=O)NCc2nc(-c3ccccc3C)no2)cc(OC)c1OC,0.17,-2.2
CCOC(=O)Cc1csc(SC(C)C#N)n1 (stereo unspecified),·,2.7
Cc1ccc(-c2noc(CNC(=O)c3ccc4c(c3)OCO4)n2)cc1,-0.706,-0.9
Cn1c(=O)c2c(SC/C(O)=C(\C#N)c3nc4ccccc4[nH]3)nc(C(C)(C)C)nc2n(C)c1=O,·,0.7
COc1cc(OC)c(C(=O)OCC(=O)N(C)C2CCCCC2)cc1OC,·,-2.2
CCOC(=O)c1cnc(SCC(=O)OC)nc1N,0.233,-0.5
COC(=O)c1c2c(c[n+](C)c1C)COC(C)OC2 (stereo unspecified),-0.246,7.9
Cc1ccc(CN2CCC(CNC(=O)Nc3cc(C)cc(C)c3)C2)cc1 (stereo unspecified),0.529,1.5
CCOC(=O)C(O)C(C)(C)CN1C(=O)c2ccccc2C1=O (stereo unspecified),-0.495,0.5
COc1ccc(CCNC(=O)CSc2nc(N)cc(N)n2)cc1,·,-0.7
Cc1cc(C)c(C#N)c(SCC(=O)Nc2sc3c(c2C#N)CCC(C(C)(C)C)C3)n1 (stereo unspecified),-0.096,0.9
O=C(N/C(=C\c1ccc2c(c1)OCO2)C(=O)N1CC2CC(C1)c1cccc(=O)n1C2)c1ccccc1F (stereo unspecified),-0.815,0.5
S=C(NC1CC1)N1CCN(c2ccc(Cl)cc2)CC1,0.415,0.7
COc1ccccc1/C=C/C(=O)OCC(=O)Nc1ccc(Cl)cn1,·,3.8
CC1CCN(c2nc(N3CCCCC3)nc(N3CCCCC3)n2)CC1,0.008,1.7

# Ordered by number of heavy atoms (descending): some entries from above
SMILES,LANA-nucl inh,Ab BasE inh
O=C(N/C(=C\c1ccc2c(c1)OCO2)C(=O)N1CC2CC(C1)c1cccc(=O)n1C2)c1ccccc1F (stereo unspecified),-0.815,0.5
CS(=O)(=O)Nc1cc(-c2nnc(Nc3ccccc3)c3ccccc23)ccc1N1CCOCC1,·,0.1
Cc1cc(C)c(C#N)c(SCC(=O)Nc2sc3c(c2C#N)CCC(C(C)(C)C)C3)n1 (stereo unspecified),-0.096,0.9
COc1cc(C(=O)NCc2nc(-c3ccccc3C)no2)cc(OC)c1OC,0.17,-2.2
O=C(Nc1ccc(N2CCCCC2)cc1)Nc1ccccc1OC(F)(F)F,-0.605,·
CC(=O)[C@@]1(O)CCC2C3C=C(Cl)C4=CC(=O)[C@@H]5CC5[C@]4(C)C3CC[C@@]21C (stereo partly specified),-0.342,-2.8
Cc1ccc(-c2noc(CNC(=O)c3ccc4c(c3)OCO4)n2)cc1,-0.706,-0.9
S=C(NC1CCCCC1)N(Cc1ccccc1)CC1CC=CCC1 (stereo unspecified),·,2.0
COc1ccc(CCNC(=O)CSc2nc(N)cc(N)n2)cc1,·,-0.7
CCOC(=O)C(O)C(C)(C)CN1C(=O)c2ccccc2C1=O (stereo unspecified),-0.495,0.5
COc1ccc(NC(C)C(=O)N2CCOCC2)c(OC)c1 (stereo unspecified),·,-1.2
S=C(NC1CC1)N1CCN(c2ccc(Cl)cc2)CC1,0.415,0.7
S=C(NCCN1CCOCC1)Nc1ccccc1,-0.253,0.5
CCOC(=O)Cc1csc(SC(C)C#N)n1 (stereo unspecified),·,2.7

# New compounds follow
SMILES,LANA-nucl inh,Ab BasE inh
O=C(COc1ccc(-c2nnco2)cc1)NCc1ccco1,·,-4.2
COC(=O)c1[nH]c2ccc(F)cc2c1N,-1.1,2.5
CCOC(=O)C1=C(C)NC(=S)NC1c1c(F)cccc1Cl (stereo unspecified),-0.916,1.8
O=C(CSc1nc(-c2ccccc2)cs1)N1CCOCC1,-1.25,-0.2
O=C(N/N=C/c1c(O)ccc2ccccc12)C1CC12CCC2 (stereo unspecified),0.0355,1.9
COc1ccc2nc(Cl)c(CNCCN(C)C)c(N3CCCCC3)c2c1,-0.172,-29.7
COc1ccc(OCc2cc(=O)[nH]c3ccccc23)cc1,0.688,0.1
COc1ccc(N(Cc2cc(-c3ccco3)on2)S(=O)(=O)c2cc(C)ccc2C)cc1,·,2.0
O=C(c1ccccc1)c1cnc(Nc2ccccc2)s1,0.561,·
CSc1nc(C)nc(Nc2ccc(Cl)cc2Cl)c1C#N,0.175,4.0
CCOc1ccc(N2C(=O)CC(NC3CCN(c4ncccn4)CC3)C2=O)cc1 (stereo unspecified),-0.635,2.6
CC(C)(C)CC(=O)NCc1nc(-c2ccc(Cl)cc2)no1,-0.651,0.7

# The list is partial; the hit share may differ from the screen's.
